# Beta2AR agonist = agonists of human beta-2 adrenergic receptor inducing internalization. AID 504454. Am2.2-beta2AR cells, FAP receptor internalization, flow cytometry; reference of the scale not given here. hit rate 0.43% among 340,000. P07550. response, % (no concentration beside the values);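 active = response above a set limit, near 3 SD of response in nonfluorescent compounds, cut at about 42% in these data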;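 note: stock transfer was 100 nL into about 11 µL; a reference agonist was the positive control; negative values mostly stem from fluorescent compounds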
# Target sequence (P07550 whole entry, looked up): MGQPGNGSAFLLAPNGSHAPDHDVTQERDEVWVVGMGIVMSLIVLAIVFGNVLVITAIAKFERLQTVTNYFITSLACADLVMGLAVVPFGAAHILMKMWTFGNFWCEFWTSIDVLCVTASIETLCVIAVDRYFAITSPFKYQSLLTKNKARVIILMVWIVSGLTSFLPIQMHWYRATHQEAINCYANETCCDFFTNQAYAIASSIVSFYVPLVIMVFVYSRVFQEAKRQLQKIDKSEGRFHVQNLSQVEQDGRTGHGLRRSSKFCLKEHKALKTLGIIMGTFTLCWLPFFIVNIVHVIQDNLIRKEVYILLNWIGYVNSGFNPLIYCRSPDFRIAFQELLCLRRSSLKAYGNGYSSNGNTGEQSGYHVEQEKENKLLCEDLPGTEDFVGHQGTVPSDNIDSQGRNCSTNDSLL
# Vif TR-FRET = HIV-1 Vif–A3G interaction blockers – biochemical, TR-FRET, GST-Vif 1-94, biotin-A3G peptide, dose response retest, primary screen (AID 1117319) | TR-FRET GST-Vif / biotin-A3G peptide binding; higher % means a stronger effect; test concentration not given here; strong numbers were not always called active | inhibition, %, or IC50 in µM where a hit was titrated | hit rate 0.57% among 260,000;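 active = above the screen mean plus three standard deviations and confirmed in dose response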;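 note: Vif residues 1-94 fused to GST binding biotinylated APOBEC3G peptide 110-148; 0% = full assay without inhibitor and 100% = GST in place of GST-Vif; retest series ran down from 100 µM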
# E coli growth = inhibitors of Escherichia coli growth. OD600, 23 h; stronger effect = lower value. OD600 absorbance (test concentration not listed). hit rate 0.21% among 330,000;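 active = OD600 absorbance below the run mean of sample wells minus 3.6 SD, in any replicate, cut at about 0.56 in these data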;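 note: stock transfer was 300 nL into about 60 µL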
# UCH37 DUB inh = human UCH37 deubiquitinating enzyme inhibition. purified proteasome/UCH37, Ub-AMC cleavage fluorescence. inhibition, % (concentration not given with the values). hit rate 0.33% among 330,000. Q9Y5K5;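 active = mean of two replicates above 20%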;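 note: 0% = compound-free wells with enzyme and 100% = wells lacking proteasome; stock transfer was 100 nL into about 20 µL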
# Target sequence (Q9Y5K5 whole entry, looked up): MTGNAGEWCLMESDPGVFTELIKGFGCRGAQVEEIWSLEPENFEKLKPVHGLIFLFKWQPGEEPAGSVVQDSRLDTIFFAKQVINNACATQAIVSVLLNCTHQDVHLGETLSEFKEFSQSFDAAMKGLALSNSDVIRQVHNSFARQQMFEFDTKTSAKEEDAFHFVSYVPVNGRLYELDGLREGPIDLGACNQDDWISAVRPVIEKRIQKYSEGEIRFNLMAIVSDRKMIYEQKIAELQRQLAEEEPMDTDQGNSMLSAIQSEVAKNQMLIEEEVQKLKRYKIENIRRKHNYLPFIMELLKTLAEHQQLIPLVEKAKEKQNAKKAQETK
#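 Material: human UCH37 enzyme supplied as purified proteasome complex / Amount: 0.15 nM proteasome as dispensed / Buffer or medium: pH 7.4 Tris-HCl (50 mM) with ovalbumin, ATP-MgCl2, DTT / Times: preincubation 30 min, reaction 25 min, room temperature / Technique: AMC fluorescence from Ub-AMC cleavage, excitation 355 nm, emission 460 nm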
# HNF4A DNA FP = change in binding of human HNF4 alpha to DNA; P41235; HNF4a-FITC DNA binding, fluorescence polarization, 1 h; AID 1224865; activity change, % at 10 µM; hit rate 0.3% among 360,000; in the data active = activity change above about 30%, passing the limit was not always enough;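 note: controls were the assay level and a saturating level of protein; the project sought stronger binding though the title names inhibitors; some compounds called inactive have numbers as strong as hits; positive values seem to mean higher polarization but the record does not say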
# * = called active by the depositor; . = not tested or not shown. An excerpt (hit frequency here may not be typical).
Compound	E coli growth	Beta2AR agonist	HNF4A DNA FP	Vif TR-FRET	UCH37 DUB inh
CCN(CC)c1ccc(C=NN2CCN(Cc3ccccc3)CC2)cc1	0.68	.	.	.	1.5
COc1ccc(CNC(=O)CC(C)=NNC(=O)Cc2ccc(OC)c(OC)c2)cc1	0.71	.	.	.	-0.2
COc1ccc(-c2cnc3nc(N=CN(C)C)nn3c2N=CN(C)C)cc1	0.67	.	.	.	0.1
Cc1cc(C=NN2CCN(C)CC2)c(C)n1-c1ccccc1F	0.71	.	.	.	3.0
O=C(CNC(=O)c1ccc2c(c1)OCCO2)NN=Cc1ccco1	0.65	.	.	.	3.1
Cc1[nH]c2ccccc2c1C=NNC(=O)c1ccc(N)cc1	0.65	.	.	.	8.5
O=C(NN=Cc1ccoc1)c1cc(Br)ccc1O	0.68	.	.	.	4.6
CC(CC(=O)NCCc1ccccc1)=NNC(=O)COc1ccc(Br)cc1	0.63	.	.	.	3.1
CCOc1ccc(S(=O)(=O)NN=C(C)c2ccc3c(c2)OCO3)cc1	0.72	.	.	.	2.8
CCN1C(=O)C(=c2sc3nc(=O)c(Cc4ccccc4)nn3c2=O)c2ccccc21	0.68	.	.	.	3.8
O=C(NN=Cc1c(O)ccc2ccccc12)c1[nH]ncc1Br	0.67	.	.	.	-2.3
O=C(Nc1ccc(Br)cc1)C1Cc2ccccc2OC1=NO (stereo not given)	0.67	.	.	.	5.7
COc1cccc(C=NNC(=O)c2c(-c3ccccc3)noc2C)c1	0.69	.	.	.	2.0
O=C(NN=Cc1ccc(O)cc1O)c1ccncc1	0.67	.	.	.	11
CCOc1cccc(C(=O)NN=Cc2ccoc2)c1	0.66	.	.	.	-2.3
CC(C)Oc1ccccc1-c1cc(C(=O)NN=Cc2cccnc2)c2ccccc2n1	0.73	.	.	.	1.0
CC(C)Oc1ccccc1C=NNC(=O)C1CCCC1	0.68	.	.	.	4.7
CC1=CCC(C(=O)NN=Cc2cccs2)C(c2ccc(F)cc2)C1 (stereo not given)	0.7	.	.	.	1.4
O=C(CCN1CCN(c2ccccc2)CC1)NN=Cc1ccccc1O	0.69	.	.	.	-24
Cn1nc(C(F)(F)F)c(C=NOC(=O)c2ccccc2)c1SCc1ccc(Cl)cc1	0.72	.	.	.	5.8
CCCC=NNc1nc2ccccc2s1	0.7	.	.	.	0.4
O=C(CCCC(=O)Nc1ccc(Br)cc1)NN=Cc1ccccc1	0.71	.	.	.	3.9
CSc1ccc(C=NNC(=O)CNc2ccc3ccccc3c2)cc1	0.67	.	.	.	0.8
CCCCC(=O)NN=C(C)/C=C/c1ccccc1F	0.66	.	.	.	1.4
COc1cc(C(=O)NN=Cc2ccc(OC)c(CN3CCN(c4ccc(F)cc4)CC3)c2)ccc1O	0.65	.	.	.	5.7
O=C1C(Nc2ccc(O)cc2)=CC(=NS(=O)(=O)c2cccs2)c2ccccc21	0.64	.	.	.	75*
COc1ccc(C=NNc2nnc(Cc3ccccc3)c(=O)[nH]2)cc1OC	0.69	.	.	.	4.4
CC(=NNC(=O)CCC1C(=O)NN=C1C)c1ccccc1 (stereo not given)	0.67	.	.	.	2.4
CC(=NNc1cc(C)nc(-c2ccccc2O)n1)c1ccccc1	0.74	.	.	.	2.1
CCOC(=O)NN=C(C)c1ccc(OC(F)F)cc1OC(F)F	0.71	.	.	.	1.0
COc1cc(C(=O)NN=Cc2ccsc2C)cc(OC)c1OC	0.7	.	.	.	6.3
CC(/C=C/c1ccco1)=NNC(=O)C1COc2ccccc2O1 (stereo not given)	0.67	.	.	.	10
COCCN=c1scc(-c2ccccc2)n1N=Cc1c[nH]c2ccccc12	0.73	.	.	.	6.5
CC(C)(C)c1ccc(C(=O)NCC(=O)NN=Cc2ccccc2OCC(=O)O)cc1	0.68	.	.	.	4.2
CCCCOc1ccc(-c2nc(C=Nc3nccs3)c(O)o2)cc1	0.7	.	.	.	6.2
O=c1c(-c2ccccc2)c1-c1ccccc1	.	.	.	-7%	1.3
COC(=O)C1=C(C(=O)OC)[C@@H]2Nc3ccccc3[C@@]23C[C@@H](C(=O)OC)N(C(=O)c2ccc(Br)cc2)C3=N1	.	.	.	-3%	-0.4
CCC(=O)N1CC2(CC(c3cccc(NC(=O)COc4ccc(Cl)cc4)c3)=NO2)C[C@@H]1C(N)=O (stereo not given in full)	.	.	.	22%	4.4
O=C(O)c1cccc(C(=O)O)n1	.	.	.	4%	3.1
CCOC(=O)[C@H](C)N1[C@H](C)[C@H](c2ccccc2)Oc2ccc(Cl)cc2S1(=O)=O	.	10	0.2	.	.
CCC(/C=C1\Oc2ccc(OC)cc2N1C)=C\c1sc2ccccc2[n+]1CCCS(=O)(=O)[O-]	.	-23	170	.	.
COc1ccc(C(=O)/C(C#N)=N/Nc2cccc([N+](=O)[O-])c2)cc1	.	21	-2.1	.	.
CCn1cnc2cc(NC(=O)COc3ccc(C)cc3)ccc21	.	-1	4.2	.	.
C#CCOCCOCCOCCNc1nc(N2CCN(C(=O)[C@H](C(C)C)n3cc(CCO)nn3)CC2)nc(N2CCN(C(=O)[C@H](C)n3cc(CCCN=C(N)N)nn3)CC2)n1	.	-6	1.5	.	.
CCCN(C(=O)COC(=O)CNS(=O)(=O)c1ccc(NC(C)=O)cc1)C1CCS(=O)(=O)C1 (stereo not given)	.	-6	-1.6	.	.
CCOc1cccc(/C=N/N=C/c2cccc(OCC)c2O)c1O	.	-7	-0.7	.	.
Cn1c(=O)c2[nH]c(C3CCC3)nc2n(C)c1=O	.	6	-0.3	.	.
CCN1CCN(C(=O)CN2C(=O)COc3ccc(S(=O)(=O)N4CCOCC4)cc32)CC1	.	6	2.9	.	.
COC(=O)c1sc(NC(=O)c2ccc3c(c2)OCO3)c(C#N)c1C	.	0	-3.7	.	.
COc1cccc(C(=O)Nc2cc(S(=O)(=O)N3CCOCC3)ccc2N2CCOCC2)c1	.	2	-1.2	.	.
CC(Nc1ccc([N+](=O)[O-])cc1[N+](=O)[O-])c1ccccc1 (stereo not given)	.	-4	-6.8	.	.
COc1cccc(CNC[C@H]2O[C@@H](n3cnc(C(N)=O)n3)[C@H](O)[C@@H]2O)c1OCc1ccc(F)cc1Cl	.	-4	-0.5	.	.
O=C1NC[C@H](Cc2ccccc2)N(C[C@H]2CCCN2C[C@H](Cc2ccccc2)N2C[C@H](Cc3ccccc3)N(CC3CCCCC3)C(=O)C2=O)C1=O	.	18	-1.2	.	.
O=C(Cn1cc(COc2ccc(Br)cc2[N+](=O)[O-])nn1)c1ccc(O)cc1	.	-12	-0.9	.	.
C=CCCC(=O)N1C[C@H]2CON(C)[C@H]2C[C@H]1c1ccccc1Br	.	-3	-2.4	.	.
CC(C)c1c(O)ccc2c1CC[C@H]1C(C)(C)CCC[C@]21C	.	18	3.7	.	.
Cc1cn(CC(=O)NCc2ccccc2)c(=O)[nH]c1=O	.	-12	2.7	.	.
CCN(CC(=O)N1CCC(C(N)=O)CC1)S(=O)(=O)c1cc(Cl)ccc1Cl	.	5	-5.2	.	.
CC[C@H]1C(=O)[C@@H](Cc2ccccc2)[C@@H]2CCN3C(=O)CCC[C@H]1[C@H]23	.	-1	2.4	.	.
Cc1ccc(OC(C)C(=O)N2CCN(c3ccccn3)CC2)cc1 (stereo not given)	.	9	3.4	.	.

# Carrying on.
Compound	E coli growth	Beta2AR agonist	HNF4A DNA FP	Vif TR-FRET	UCH37 DUB inh
CC1=NN(c2nc(N)nc(/C(C#N)=C/c3ccc([N+](=O)[O-])o3)n2)C(C)(C)C1	.	-714	96*	.	.
CN1CCN(c2ccc(S(=O)(=O)N3CCOCC3)cc2NC(=O)COc2ccc(C#N)cc2)CC1	.	6	2.1	.	.
CC(C)C(=O)Nc1ccc(COc2ccccc2CN(Cc2ccccc2)C(=O)OC(C)(C)C)cc1	.	-2	-6.1	.	.
CCN1C(=O)CC2CCCC1C2 (stereo not given)	.	-12	0.2	.	.
Cc1cccc(CN(C)C)c1CC(O)(c1ccccc1)c1ccccc1	.	-8	0.2	.	.
C#CCN1[C@@H]2CCN(C2)c2cc(Br)ccc2S1(=O)=O	.	1	3.2	.	.
CC(=O)c1cccc(OC(=O)Oc2cccc(C(C)=O)c2)c1	.	-8	-1.5	.	.
CC(C)n1c(CNC(=O)c2ccccc2F)nnc1SCC(=O)c1ccc(F)cc1	.	2	2.8	.	.
C[C@H](O)[C@@H]1C(=O)N2CCc3ccc(N4CCN(C)CC4)cc3[C@@H]2C[C@@H]1N(C)C(=O)NC1CCCCC1	.	-5	-4.0	.	.
O=C(N/N=C/c1cccc2ccccc12)c1cc2ccccc2o1	.	-5	1.9	.	.
COc1cccc(C2C(C(=O)c3ccco3)=C(O)C(=O)N2CCCN2CCOCC2)c1OC (stereo not given)	.	8	-5.7	.	.
Cc1ccc2nc3c(cc(S(=O)(=O)c4ccccc4)c(=N)n3C3CCCC3)c(=O)n2c1	.	3	4.7	.	.
